# Source: PubChem BioAssay
# NPYLR7 agonist: activates Aedes aegypti NPYLR7 receptor; actives 0.15% (n = 270,000); AID 1259423; activation, % at 10 µM; HEK293T NPYLR7/Galpha15, GCaMP6s calcium fluorescence; in the data active = activation above about 40%;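 note: 0% = vehicle and 100% = reference agonist at the receptor; some compounds past the cut are filed as inactive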
# NPYLR7 agonist max-min: recorded beside NPYLR7 agonist, whose call it bears; activation, %; measured here: Max-Min RFU normalised activation; some inactives read as strong as hits;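 span of the calcium signal over five minutes; 0% = vehicle and 100% = native peptide agonist; compound fluorescence can raise it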
# * = called active by the depositor; & = joins results of further samples.
SMILES,NPYLR7 agonist,NPYLR7 agonist max-min
O=C(Nc1ccc(-c2cccc(F)c2)cc1)C1CCCN(C(=O)Cc2ccccn2)C1 (stereo unspecified),10,3
CC(C)(C)c1cc(CCC(=O)NCCNS(=O)(=O)c2ccc3[nH]cc(C(=O)O)c(=O)c3c2)cc(C(C)(C)C)c1O,-9,-15
CCOc1ccc(CN(Cc2ccc(F)cc2)Cc2nc(C(=O)N3CCN(C(C)=O)CC3)co2)cc1,13,3
Cc1ccc(S(=O)(=O)N2CCN(c3ccc(C)c(Cl)c3)CC2)cc1,3,-1
CN(Cc1nccn1C)C(=O)Nc1ccc(F)cc1F,-2,-1
COc1c(C=NNC(=O)c2cccc(Br)c2)sc2ccccc12,-7,-13
Cn1nc(C(C)(C)C)cc1C(=O)N1CCN(Cc2cc(=O)c(OCc3ccc(-c4ccccc4C#N)cc3)co2)CC1,3,6
CC(C)c1ccc(CN(C(=O)c2ccc(=O)[nH]n2)C2CC2)cc1,7,4
CCCC(C)(NC(=O)c1cccc(Cl)c1Cl)C(=O)OC (stereo unspecified),6,1
COCCN(Cc1nccn1Cc1ccc(OC)cc1)C(=O)C1CC1,-15,-10
COCCCN1C(=O)/C(=C\c2sccc2C)C(C(=O)OC)=C1C,1,-1
Cc1cccc(NC(=O)c2cn(C)cc3c(=O)n(-c4ccccc4)nc2-3)n1,7,7
CN(C)S(=O)(=O)c1cccc(NC(=O)c2sccc2-n2cccc2)c1,6,4
COc1ccc(C(=O)N(Cc2ccccc2)C2CCC(NC(=O)C3CCN(C(=O)c4cccc(Cl)c4)CC3)CC2)cc1 (stereo unspecified),-3,1
COc1ccc(CCn2c(-c3ccc(OC)c(F)c3)nc3cc(Cl)ccc3c2=O)cc1,6,6
Cc1ccc(N2CCn3c2nc2c3c(=O)n(CCC(C)C)c(=O)n2C)c(C)c1,-1,10
CC(NC1CCC2(CCNCC2)CC1)c1ccc(S(C)(=O)=O)cc1 (stereo unspecified),2,2
Cc1ccc(C2=NN(C(=O)CN3CCCCC3)C(c3ccccc3F)C2)c(C)c1 (stereo unspecified),0,2
CCC(CC)C(=O)Nc1cccc(-c2cccc(-c3cc(OC)ccc3OC)n2)c1,1,-1
Cc1ccc(N2CCOC2=O)cc1NC(=O)c1ccc(Cl)s1,3,0
CC(C)n1cc(C(=O)N2CCCC(c3n[nH]c(=O)n3-c3ccccc3)C2)cn1 (stereo unspecified),7,4
Cc1ccc(-n2ncc3c(C4CC4)nn(CC(=O)N4CCc5ccccc54)c(=O)c32)c(C)c1,5,1
CC(C)C(CNCc1ccccc1)N1CCCC1 (stereo unspecified),0,9
Cc1cc(C)c(S(=O)(=O)N2CCC3(CC2)C(=O)N(CC(=O)NCc2cccc(C(F)(F)F)c2)CN3c2ccccc2)c(C)c1,19,25
Fc1ccc(C2=Nc3nc(C(F)(F)F)nn3C(c3ccc(F)c(F)c3)C2)cc1 (stereo unspecified),5,5

# Given bar-delimited: six of the compounds above.
compound | NPYLR7 agonist | NPYLR7 agonist max-min
CC(NC1CCC2(CCNCC2)CC1)c1ccc(S(C)(=O)=O)cc1 (stereo unspecified) | 2 | 2
CCC(CC)C(=O)Nc1cccc(-c2cccc(-c3cc(OC)ccc3OC)n2)c1 | 1 | -1
COc1ccc(CCn2c(-c3ccc(OC)c(F)c3)nc3cc(Cl)ccc3c2=O)cc1 | 6 | 6
CCCC(C)(NC(=O)c1cccc(Cl)c1Cl)C(=O)OC (stereo unspecified) | 6 | 1
COCCN(Cc1nccn1Cc1ccc(OC)cc1)C(=O)C1CC1 | -15 | -10
COc1c(C=NNC(=O)c2cccc(Br)c2)sc2ccccc12 | -7 | -13

# In a second layout: entries from further up
Molecule | NPYLR7 agonist | NPYLR7 agonist max-min
CCC(CC)C(=O)Nc1cccc(-c2cccc(-c3cc(OC)ccc3OC)n2)c1 | 1 | -1
Cc1ccc(N2CCOC2=O)cc1NC(=O)c1ccc(Cl)s1 | 3 | 0
CC(C)n1cc(C(=O)N2CCCC(c3n[nH]c(=O)n3-c3ccccc3)C2)cn1 (stereo unspecified) | 7 | 4
Cc1ccc(-n2ncc3c(C4CC4)nn(CC(=O)N4CCc5ccccc54)c(=O)c32)c(C)c1 | 5 | 1
CC(C)C(CNCc1ccccc1)N1CCCC1 (stereo unspecified) | 0 | 9

# (list continues)
SMILES,NPYLR7 agonist,NPYLR7 agonist max-min
CCc1[nH]n(-c2cccc(Cl)c2)c(=O)c1C1=C(N(C)CC)C(=O)N(c2ccc(OC)c(OC)c2)C1=O,25,30
CCOC(=O)c1sc2[nH]c(-c3ccccc3)cc(=O)c2c1C,9,4
Cc1nn(-c2ccccc2)c2[nH]cc(C(=O)N(C)c3ccccc3)c(=O)c12,-4,20
CCCC(=O)N1CCC1(C)C(=O)Nc1ccnn1CC (stereo unspecified),8,3
Cc1nonc1C(=O)N=Nc1c(O)[nH]c2ccc(Br)cc12,8,9
Cc1nc2c(OCC(=O)c3ccc(Cl)cc3Cl)cccn2c1N(C)C(=O)CCC1CCCC1,-4,-9
CCc1nc2ccc(C(=O)NC3CCN(Cc4ccccc4)CC3)cn2c1N(C)Cc1cc2ccccc2s1,4,11
Cc1ccc2nc(SCc3ccc(Br)cc3)nc(=O)n2c1,5,1
COc1ccc(-c2nccn2C2CCCC2)cc1Cn1cccn1,-7,-7
CCNC(=O)Nc1ccc(N(C)C)c(CN(Cc2ccc(F)cc2)C(=O)c2cccs2)c1,-4,1
COc1ccc(Nc2nc(N)c([N+](=O)[O-])c(NCc3ccco3)n2)cc1,2,1
O=C(c1cccnc1)N(c1cc2sc(=O)oc2c2ccccc12)S(=O)(=O)c1ccc(F)cc1,2,17
CCOCCCN(CC(=O)N(Cc1cccn1Cc1ccccc1Cl)CC(C)C)C(=O)Cc1cccs1,15,17
Cc1ccc(-c2csc(N)n2)cc1,0,0
CN(C)C(CNC(=O)NCc1cccc2ccccc12)c1ccsc1 (stereo unspecified),6,-2
O=C(CCn1cnc2ccccc2c1=O)Nc1cccc(S(=O)(=O)N2CCCCC2)c1,1,4
COc1ccc(C(C)(C)O)c(OCc2ccccc2)c1,-28&1,-26&-1
O=C(Nc1ccccc1F)c1cccn(OCc2ccccc2F)c1=O,3,1
Fc1cccc(C2CC(c3cccc(Br)c3)Nc3nnnn32)c1 (stereo unspecified),25,14
N#Cc1ccc(-c2ccccc2)nc1SCc1ccccc1F,-6,-16
COc1cn(CC(=O)Nc2ccccc2C)c(CN2CCN(C(C)=O)CC2)cc1=O,0,0
Cc1cc(C)n(C(C)CNS(=O)(=O)c2ccc(Cl)cc2)n1 (stereo unspecified),-2,-4
Cc1ccc([N+](=O)[O-])cc1S(=O)(=O)N(C)CCCN1c2ccccc2CCc2ccccc21,1,-2
NNc1ccnc2c(Cl)cccc12,-5,-10
CCOC(=O)C1(Cc2ccc(OC)cc2)CCN(C(=O)C2(C)CCCCC2)CC1,5,6

# (next part)
SMILES,NPYLR7 agonist,NPYLR7 agonist max-min
O=C(CC1CCCO1)NCc1ccc(N2CCCC2)cc1 (stereo unspecified),3,2
O=C(O)c1nc(N2C(=O)C3C4C=CC(C4)C3C2=O)n[nH]1 (stereo unspecified),-10,-16
O=S(=O)(Nc1ccc(-n2cnnn2)cc1)c1ccc(S(=O)(=O)N2CCCC2)cc1,8,7
CCc1ccc(N2CC(C(=O)OCc3nnc(C)o3)CC2=O)cc1 (stereo unspecified),9,5
O=C(COc1cccc(C(F)(F)F)c1)Nc1ccc2c(c1)OCO2,-5,-8
CCCCN(CC)C(=O)c1cc2c(=O)n3cccc(C)c3nc2n1C,5,9
O=C(Nc1ccc(OCC2CCOC2)cc1)c1ccc2nccn2c1 (stereo unspecified),-3,-5
C=C(Nc1sc2c(c1C(=O)OC(C)C)CCC(C)C2)C(C#N)C(N)=O (stereo unspecified),18,19
O=C(CCN1C(=O)/C(=C/c2ccccc2)SC1=S)NC12CC3CC(CC(C3)C1)C2,0,-4
CN(C)CCNC(=O)c1csc(N2CCN(CCc3ccccc3)C2=O)n1,2,-1
O=C(NCCCOC1=NS(=O)(=O)c2ccccc21)Nc1ccc(Cl)cc1,-5,865
COC(=O)c1ccc(N2Cc3cc(Cl)ccc3OCC2=O)cc1,-4,-6
Cc1nn(C(=O)COc2ccc(Cl)cc2)c(C)c1Sc1ccccc1[N+](=O)[O-],4,11
Cc1cc(C)nc(NC(C)c2cccc(-n3cncn3)c2)n1 (stereo unspecified),4,1
O=C(c1ccc(=O)[nH]c1)N1CCC(Cc2nncn2-c2ccccc2)CC1,2,-1
S=c1nc2c(n[nH]1)c1ccccc1n2CC1CCCO1 (stereo unspecified),5,2
CCCCCCC1(C)NC(=O)N(Cc2cc(=O)n3ccsc3n2)C1=O (stereo unspecified),5,1
O=C(CCN1C(=O)COc2ccccc21)N1CCC2(CCCO2)CC1,5,3
CN(C)CCN(Cc1ccccc1)C(=O)c1cc(-c2ccccc2F)nn1-c1ccc(Cl)cc1,-2,10
Cc1cc(C)c(CNC(=O)c2ccc(-n3cncn3)cc2)c(=O)[nH]1,-2,5
CCNC(=S)NNc1nc(N2CCCCC2)nc(N2CCOCC2)n1,-4,-9
Cc1nn(S(=O)(=O)c2ccc(C(C)C)cc2)c(C)c1S(=O)(=O)N1CCCCCC1,3,1
O=C1CCCN1c1cccc(OS(=O)(=O)c2ccc(F)cc2Cl)c1,12,4
COc1ccc(CCNC(=O)CN2CN(c3ccccc3)C3(CCN(C(=O)c4ccc(Cl)c(Cl)c4)CC3)C2=O)cc1OC,23,25
OCCNCCOc1ccc(I)cc1,3,1

# Next section
SMILES,NPYLR7 agonist,NPYLR7 agonist max-min
Cc1ccn2c(NC(C)(C)C)c(-c3cccc(F)c3)nc2c1,2,2
COCC(=O)NNC(=O)C(O)(c1ccc(Br)cc1)c1ccc(Br)cc1,-3,-8
Cc1ccc(C(CNC(=O)N2CC3CCC2C3)N2CCCC2)o1 (stereo unspecified),5,2
COc1cccc(CNC(=O)c2cc(-c3cc(OC)c(OC)c(OC)c3)nc3ccccc23)c1OC,14,23
CO[C@H]1C=CO[C@@]2(C)Oc3c(C)c(O)c4c(O)c(c5c(c4c3C2=O)NC2(CCN(CC(C)C)CC2)N=5)=NC(=O)C(C)=CC=C[C@H](C)[C@H](O)[C@@H](C)[C@@H](O)[C@@H](C)[C@H](OC(C)=O)[C@@H]1C,-11,-16
COc1cccc(C(=O)NC(C(=O)N2CCOCC2)C2CCN(C(=O)c3cccs3)CC2)c1 (stereo unspecified),-6,12
CC(=O)Nc1ccc(OC(F)F)c(Cc2ccccc2)c1,-2,-4
COC(=O)c1cccc(NC(=O)c2sc3ccccc3c2Cl)c1,-6,-8
CCc1c(C)nc(-c2cccc(C)c2)nc1N1CCN(C(=O)c2cc(OC)cc(OC)c2)CC1,8,7
COCC(C)(NC(=O)c1cncc(C)c1)c1ccccc1 (stereo unspecified),5,5
CCCOC1CCCN(C(=O)c2cc(OC)ccc2OC2CCN(C(=O)C3CC3)CC2)C1 (stereo unspecified),5,1
COc1ccc(Oc2cc(C(F)(F)F)nc(SCc3ccccc3C)n2)cc1,1,13
CCCc1nc(C(=O)N2CCCC3(C2)C(=O)N(C)c2ccccc23)cs1 (stereo unspecified),-4,-3
COc1ccc(OC)c(C2CCN(C3CCN(C(C)=O)CC3)C2)c1 (stereo unspecified),9,6
CNS(=O)(=O)c1cccc(S(=O)(=O)c2cccc(S(=O)(=O)NC)c2)c1,-7,-13
COc1cc2c(cc1OC)C(c1c(F)cccc1Cl)N(C(=O)Nc1ccc(F)c(F)c1)CC2 (stereo unspecified),2,13
CCSc1nc(CC(=O)N(C)CCc2noc(C)n2)cs1,15,1
COCCCN(CC(=O)N(CCc1c[nH]c2ccccc12)Cc1ccc(Cl)c(Cl)c1)C(=O)c1ccc(Br)cc1,16,12
C[C@@H]1CN(CC(=O)Nc2ccccc2Cl)C[C@H](C)O1,-1,-7
O=C(O)c1cc(-c2ccco2)nn1-c1cccc([N+](=O)[O-])c1,10,8
CCCCCn1c(C)cn2c3c(=O)n(C)c(=O)n(C)c3nc12,-5,-7
Cc1nnsc1C(=O)N[C@H]1CCN(C(=O)c2cccn2C)[C@H](C(=O)NCCC(N)=O)C1,-8,-13
C=CCCC(O)(CCC=C)c1ccc(CN(CCOC)Cc2cccc(F)c2)o1,-10,-5
Cc1ccc(S(=O)(=O)N2CCC(C(NC(=O)c3cccs3)C(=O)N3CCCC3)CC2)cc1 (stereo unspecified),8,13
Cc1cc(C)n(CCCNC(=O)c2oc3c(C)c(C)ccc3c2C)n1,5,4

# Next section.
SMILES,NPYLR7 agonist,NPYLR7 agonist max-min
COCCN(Cc1c(-c2ccccc2)noc1N1CCN(C)CC1)C(=O)c1ccc(F)cc1,3,6
CCN(CC)C(=O)C(OC(=O)c1ccc(C#N)cc1)c1ccccc1 (stereo unspecified),1,-1
Cc1cc(C2Nc3ccccc3C(=O)N2Cc2cccs2)oc1C (stereo unspecified),1,-1
CC(C#N)(NC(=O)COC(=O)Cc1noc2ccccc12)C1CC1 (stereo unspecified),2,2
Cc1ccc(C)c2[nH]c(=O)c(CCNC(=O)c3ccc(C(F)(F)F)cc3)cc12,13,8
Cc1n[nH]c(C)c1CCCn1cnc(-c2ccccc2)c1-c1cccnc1,3,28
O=C(O)c1cc2c3c(c1)C1C=CCC1C(c1cccc([N+](=O)[O-])c1)N3CC1CC=CC21 (stereo unspecified),-6,6
Cc1ccc2nc(NC(=O)CSc3ccc4nnc(-c5ccc(F)cc5)n4n3)sc2c1,5,21
Cc1nc(CCNC2CCC3(CCNCC3)CC2)nc2c1CCCC2,3,2
COc1ccc(OC)c(CN(Cc2ccc3c(c2)OCO3)Cc2nc(C(=O)NCc3ccc(F)cc3)co2)c1,18,19
Cc1ccc(NC(=O)C(=O)N2CCC(N3CCCC3=O)CC2)cc1C,3,1

# The list is partial; rates above refer to the full screens.
